# Vif TR-FRET = inhibitors of Vif binding to APOBEC3G peptide, primary screen, biochemical, TR-FRET, GST-Vif 1-94, biotin-A3G peptide, dose response retest (AID 1117319). Virion infectivity factor (Human immunodeficiency virus type 1 group M subtype B (isolate …. TR-FRET GST-Vif / biotin-A3G peptide binding; higher % means a stronger effect; test concentration not given here; strong numbers were not always called active. inhibition, %; hits with a dose series show IC50 in µM. 260,000 tested, 0.57% active;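 active = above the screen mean plus three standard deviations and confirmed in dose response; inconclusive = results disagree or hit not tested in dose response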;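 also: Vif residues 1-94 fused to GST binding biotinylated APOBEC3G peptide 110-148; 0% = full assay without inhibitor and 100% = GST in place of GST-Vif; retest series ran down from 100 µM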
# B2AR ag = beta2AR agonists driving receptor internalization, primary screen, cell-based, FAP fluorogen, flow cytometry | Am2.2-beta2AR cells; reference of the scale not given here | Beta-2 adrenergic receptor (Homo sapiens), P07550 | 340,000 tested, 0.43% active | response, % (concentration not given with the values);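 active = response above a set limit, near 3 SD of response in nonfluorescent compounds, cut at about 42% in these data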;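 also: stock transfer was 100 nL into about 11 µL; a reference agonist was the positive control; negative values mostly stem from fluorescent compounds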
# Target sequence (P07550 whole entry, looked up): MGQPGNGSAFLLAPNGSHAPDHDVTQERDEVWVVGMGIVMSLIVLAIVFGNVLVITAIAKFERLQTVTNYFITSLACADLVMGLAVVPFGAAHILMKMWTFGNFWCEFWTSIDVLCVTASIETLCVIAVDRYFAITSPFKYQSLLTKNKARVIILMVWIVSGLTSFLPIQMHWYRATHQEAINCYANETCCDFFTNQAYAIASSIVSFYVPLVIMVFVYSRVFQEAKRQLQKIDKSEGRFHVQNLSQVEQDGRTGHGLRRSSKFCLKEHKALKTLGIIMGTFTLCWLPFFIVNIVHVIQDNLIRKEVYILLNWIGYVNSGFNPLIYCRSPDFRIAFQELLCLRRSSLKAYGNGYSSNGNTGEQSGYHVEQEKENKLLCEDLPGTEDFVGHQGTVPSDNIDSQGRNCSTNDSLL
# RanGTP-Impb inh = inhibitors of RanGTP-importin-beta interaction, primary screen, biochemical, FRET, CFP-Ran, YFP-importin-beta, homogeneous | Ran GTPase (GTP-bound) - importin-beta complex | cell-free CFP-Ran/YFP-importin-beta FRET ratio | inhibition, % (test concentration not listed) | 300,000 tested, 1.1% active;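 active = most replicates above 15%; inconclusive = exactly half above 15%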;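 also: 0% = DMSO wells and 100% = Ran loaded with GDP instead of GTP; wells of about 40 µL received 100 nL stock; the first replicate is given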
# HNF4A DNA FP = change in binding of human HNF4A to DNA, primary screen, biochemical, fluorescence polarization, FITC-DNA. AID 1224865, 2016. 360,000 tested, 0.3% active. 1 h. activity change, % at 10 µM; in the data active = activity change above about 30%, passing the limit was not always enough;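 also: controls were the assay level and a saturating level of protein; the project sought stronger binding though the title names inhibitors; some compounds called inactive have numbers as strong as hits; positive values seem to mean higher polarization but the record does not say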
# Target sequence (P41235 whole entry, looked up): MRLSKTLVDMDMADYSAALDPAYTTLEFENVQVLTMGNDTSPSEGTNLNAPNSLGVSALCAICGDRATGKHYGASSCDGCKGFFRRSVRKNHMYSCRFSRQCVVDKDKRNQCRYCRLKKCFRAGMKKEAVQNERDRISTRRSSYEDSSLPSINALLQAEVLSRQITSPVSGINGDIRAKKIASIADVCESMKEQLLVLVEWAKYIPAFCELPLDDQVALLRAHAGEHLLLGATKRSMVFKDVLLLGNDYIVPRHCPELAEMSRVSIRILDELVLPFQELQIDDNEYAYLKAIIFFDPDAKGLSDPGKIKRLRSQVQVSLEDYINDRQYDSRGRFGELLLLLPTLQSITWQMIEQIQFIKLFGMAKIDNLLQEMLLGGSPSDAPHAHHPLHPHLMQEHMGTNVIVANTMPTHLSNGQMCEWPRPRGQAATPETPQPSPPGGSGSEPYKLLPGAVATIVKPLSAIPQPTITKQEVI
# ALR inh = inhibitors of human ALR sulfhydryl oxidase, primary screen, biochemical, H2O2 detection, HRP-luminol luminescence, single point; FAD-linked sulfhydryl oxidase ALR (Homo sapiens), P55789; purified ALR, DTT oxidation; inhibition, % (concentration not given with the values); 290,000 tested, 3.8% active; AID 485317, 2010;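 active = mean and each replicate at 75% or more; inconclusive = only one of the two met; inactive = neither met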;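 also: stock transfer was 7.5 nL into about 7.5 µL; 0% = neutral wells and 100% = wells with inactivated enzyme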
# Target sequence (P55789 whole entry, looked up): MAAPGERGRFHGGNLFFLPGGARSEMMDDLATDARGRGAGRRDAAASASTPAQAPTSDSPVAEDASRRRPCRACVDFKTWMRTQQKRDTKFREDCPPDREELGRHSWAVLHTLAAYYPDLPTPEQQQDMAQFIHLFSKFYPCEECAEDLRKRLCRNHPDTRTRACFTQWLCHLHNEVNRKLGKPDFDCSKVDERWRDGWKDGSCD
# LANA-H2B inh = blockers of LANA interaction with H2A/H2B – biochemical, FP readout, HTS, primary screen | AID 2629, 2010 | Protein LANA1 (Human herpesvirus 8 type P (isolate GK18)), Q9QR71 | inhibition, % (concentration not given with the values) | cell-free LANA-H2A/H2B peptide, fluorescence polarization | 320,000 tested, 0.6% active; in the data active = inhibition mostly above about 10%, no sharp cut-off; inactive = mostly below about 6.7%;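 also: stock transfer was 7.5 nL into about 10 µL; 0% = median of vehicle wells and 100% = median of positive control wells; one replicate is shown; the record names a cut of 25% in any replicate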
# Calb FLC = C. albicans growth inhibition with fluconazole, primary screen, CaCi-2 strain, Alamar Blue fluorescence | growth inhibition, % (test concentration not listed) | 300,000 tested, 0.57% active | AID 1979, 2009 | C. albicans CaCi-2 (fluconazole-resistant clinical isolate) + fluconazole, 48 h;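 active = most replicates above 75%; inconclusive = exactly half above 75%; inactive = most below 75%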;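 also: all wells also contain fluconazole at 8 µg/ml as a sub-toxic cotreatment; 0% = median of DMSO wells and 100% = median of geldanamycin control wells; wells of about 8 µL received 7.5 nL stock; the first replicate is given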
# * = called active by the depositor; ? = inconclusive; . = no result given; & = joins results of further samples.
# Each structure is followed by: Vif TR-FRET, B2AR ag, RanGTP-Impb inh, HNF4A DNA FP, ALR inh, LANA-H2B inh, Calb FLC
O=S(=O)(NCCc1ccc2c(c1)OCCO2)c1cccs1
→ 9%, 3, -1.3, 24, -9, 3.8, -26
NC(=O)COc1ncnc2scc(-c3ccc(F)cc3)c12
→ ., 4, 5.5, -0.7, 14, -0.6, -2
CC(C)(C)OC(=O)N1CCC[C@H]1c1nnc(SCc2ccc(Cl)cc2)o1
→ -4%, 2, -1.6, 5.6, -4, -1.7, 1
COc1ccc2oc(C(=O)OCC(=O)Nc3ccc(NC(C)=O)cc3)c(C)c2c1
→ 2%, -4, 0.5, 1.9, 0, 0.4, .
O=C(O)c1ccc2c(c1)C(=O)N(CCc1c[nH]c3ccccc13)C2=O
→ -6%, 27, -4.4, 2.6, -9, 1.6, 2
O=C(NCCc1c[nH]c2ccccc12)c1cccc(Br)c1
→ 1%, 3, -1.3, -0.6, -2, -3.7, 18
COC(=O)c1ccc(NC(=O)Cn2nc(C(=O)Nc3ccc(C)cc3)ccc2=O)cc1
→ ., 1, -2.0, 0.1, -3, 10, -30
COc1cccc(C(C(=O)NC(C)(C)C)N(Cc2ccco2)C(=O)CCC(=O)Nc2cc(C)on2)c1OC (configuration not stated)
→ ?, 0, 0.1, 1.8, -2, -1.1, 2
CC1=CCC2C(=O)N(c3ccc(Br)cc3C)C(=O)C2C1 (configuration not stated)
→ 3%, 1, 7.3, -1.0, ., 3.8, 13
CCCS(=O)(=O)N1CCCC(C(=O)NC2CCCC(C)C2C)C1 (configuration not stated)
→ 2%, -23, 1.9, -3.3, 4, 3.7, 0
CN(C)S(=O)(=O)c1ccc(N2CCCC2)c(C(=O)Nc2nc(-c3cc(F)ccc3F)cs2)c1
→ 19%, 6, 4.1, 1.0, -3, -2.0, -3
Nc1cccc(P(=O)(c2ccccc2)c2ccccc2)c1
→ ., -1, 5.5, -1.3, ., 4.9, -4
CC(C)(C)NC(=O)C1CCN(C(=O)c2ccc(Br)cc2)CC1
→ -1%, -2, 2.6, -3.4, -2, 1.4, -13
CCOC(=O)c1[nH]c(C)c(C(=O)NC2CCCCCC2)c1C
→ 26%, 5, 2.0, -0.9, -5, -1.1, -3
CC1CCc2sc(C(=O)N(C)CC(=O)Nc3cccc(F)c3)cc2C1 (configuration not stated)
→ -1%, -10, 1.8, -1.8, 5, -0.6, 0
O=C(OCCCN=C1NS(=O)(=O)c2ccccc21)C1CC(=O)N(c2ccc(Cl)cc2)C1 (configuration not stated)
→ 13%, 3, -1.2, 1.3, -3, -0.8, -10
Cn1ccnc1C(=O)c1ccc(N)cc1
→ ., 4, ?, -1.1, -3, 2.8, -2
O=C(c1ccco1)N1CCN(Cc2cccc([N+](=O)[O-])c2)CC1
→ 1%, 2, -1.7, 4.5, -9, -1.7, 24
Cc1occc1C(=O)NCc1ccco1
→ ?, 2, 2.4, -3.1, 52, 0.1, -27
CC1CC(C)CN(C(=O)Nc2ccccc2F)C1 (configuration not stated)
→ 2%, 2, -0.6, -4.1, -2, -4.2, -1
O=C(Nc1ccc(O)cc1)c1ccc(NC(=O)c2ccco2)cc1
→ 0%, 28, 1.9, 3.4, 8, 4.2, -1
O=C(Cc1cccs1)Nc1ccc(-c2nnc(-c3ccccc3)o2)cc1
→ ., -3, -1.0, -8.5, -7, -4.4, -25
CCC(=O)Nc1nc2ccccc2n1CCN(CC)CC
→ 11%, 0, -3.9, -2.3, 1, 2.0, -9
COc1ccc(C2=NOC(CN3C(=O)c4ccccc4S3(=O)=O)C2)cc1 (configuration not stated)
→ 5%, -2, -12, 30, -11, 0.2, 0
CC(=O)c1cc(NC(=O)c2cccc(C(F)(F)F)c2)c(=O)oc1C
→ 16%, -5, -0.3, -0.6, ?, 4.9, 1
Cc1ccc2oc(C(=O)N3CCC(O)(c4cccc(C(F)(F)F)c4)CC3)c(C)c2c1
→ -2%, -4, 0.9, 4.1, 0, 0.7, 18
COc1ccc(-c2nnc(SCC(=O)c3cccs3)o2)c(OC)c1
→ -19%, -1, 1.9, 2.0, ., 3.1, -1
CCCCN=CC1=C(O)C(C(=O)OC)C(C)(C)CC1=O (configuration not stated)
→ -2%, 3, -6.5, -3.0, -9, 1.3, -4
CSc1cccc(NC(=O)CCS(=O)(=O)c2cccc3nonc23)c1
→ ., -2, 1.1, 2.5, ., 1.0, -3
COc1ccc2[nH]c3c(c2c1)CCn1c-3nc2ccccc2c1=O
→ 24%, -8, ., 1.6, -2, 3.5, .
COC(=O)c1cc(NC(=O)c2ccc(-c3ccccc3)cc2)ccc1Cl
→ ., 5, 0.2, 2.4, 2, 6.6, 6
COCCNc1nc2nonc2nc1NC(C)c1ccccc1Cl (configuration not stated)
→ -3%, 1, 3.8, 4.0, -14, 5.1, -20
CN(C(=O)C1CCCO1)c1nnc(-c2ccncc2)s1 (configuration not stated)
→ ?, -13, 2.7, 1.8, -9, 3.7, 7
CN(C)S(=O)(=O)c1cc(C(=O)Nc2ccn(C)n2)c(Cl)cc1Cl
→ -4%, -2, ., 1.0, ., -2.9, .
[O-][n+]1onc2c1CCc1c-2nn(-c2ccccc2Cl)[n+]1[O-]
→ 3%, -1, 1.2, 1.5, -3, -6.4, -10
Cc1cc(O)c(C(C)C)cc1C1(c2cc(C(C)C)c(O)cc2C)OC(=O)c2ccccc21
→ 28%, 11, 9.0, -0.4, 3, 15*, 2
COc1cccc(/C(O)=C/c2nc3ccc(C(=O)NCCc4cccc(C)c4)cc3[nH]c2=O)c1
→ ., -39, 43*, 8.8, -17, -7.2, -2
Cc1noc(C)c1COc1ccc(C(=O)N2CCN(S(=O)(=O)c3ccccc3)CC2)cc1
→ -1%, 12, ., 1.0, -1, 4.4, .
COc1ccc2[nH]c3c(c2c1)CCN1C(=O)C(CC(=O)NCCc2ccccn2)C[C@H](C(=O)N2CCCCC2)[C@@]31C (some centres not stated)
→ 6%, -1, ., 2.7, ., ., .
CCc1ccc(O)c(-c2cc(C(=O)Nc3cccnc3)[nH]n2)c1
→ 9%, 15, 1.9, 0.3, ., -0.9, 0
COc1ccc(OC)c(NC(=O)CSc2nnc(C3CCCCC3)o2)c1
→ -8%, -3, -1.0, 0.0, -11, -3.7, 12
Cc1nnc(NC(=O)c2ccc3ccccc3c2)s1
→ ., -4, 0.6, 3.7, -2, -2.5, 7
CC1(c2ccccc2Cl)NC(=O)N(CC(=O)Nc2ccccc2OC(F)F)C1=O (configuration not stated)
→ 1%, -1, -3.1, 0.9, -4, 1.4, -7
C/C(=N\NC(=O)c1nnn(-c2nonc2N)c1-c1cccs1)c1cccc(O)c1
→ ., 9, 3.5, 3.5, 13, -1.2, -10
COc1ccc(C2=Nc3ccc(Br)cc3C(c3ccccc3)N2CC(=O)NN)cc1 (configuration not stated)
→ -10%, 3, -1.2, 1.1, 11, -2.5, 2
CCOC(=O)c1c(-c2ccccc2)oc2cc(Br)c(O)c(C=O)c12
→ -67%, 57*, 0.4, 1.2, -10, -3.4, 100*
COc1ccc(NC(=O)Nc2ccc3c(c2)C(=O)N([C@@H](C)CO)C[C@@H](C)[C@@H](CN(C)S(=O)(=O)c2cn(C)cn2)O3)cc1
→ 2%, -4, ., -2.6, ., ., .
NS(=O)(=O)c1ccc(NC(=O)CSc2nc3c(cnn3-c3ccccn3)c(=O)[nH]2)cc1
→ 8%, 6, ., 1.8, ., ., .
CCOC(=O)c1sc(NC(=O)CSc2ncccn2)c(C#N)c1C
→ 10%&0%, -7, -1.9, 6.1, ., ., ?
O=S(=O)(Nc1cc(S(=O)(=O)N2CCCC2)ccc1O)c1ccc(Cl)s1
→ 3%, -10, ., 5.4, ., ., .
Cc1cc(C(=O)N2CCCC2)n[nH]1
→ ., 1, -2.8, -0.1, ., ., -5
COc1ccc(C(=O)c2sc(Nc3ccccc3F)nc2N)cc1
→ -8%, 6, 0.2, 5.1, 2, -5.0, 61
CN1CCC(N(C)C(=S)NC(=O)C23CC4CC(CC(C4)C2)C3)CC1
→ ., 5, -2.0, -0.1, -4, -3.9, -7
CCS(=O)(=O)N1CCC(c2nc(-c3ccc(C(F)(F)F)cc3)no2)CC1
→ 1%, -2, ?, 4.1, ., 2.8, -9
O=C(Cc1cccc(Cl)c1)Nc1ccc(Br)cc1
→ ., -9, ?, 1.0, 3, 1.6, 14
Cc1cc(C)n(CCNc2nc3nonc3nc2N2CCCCC2)n1
→ -4%, -7, -2.8, -2.5, -6, 2.6, -19
CC(=O)Nc1ccc([N+](=O)[O-])c(CS(=O)(=O)c2ccc(C)cc2)c1[N+](=O)[O-]
→ ., -16, 3.3, 2.0, -11, 0.7, -4
COc1ccc(OCC(O)CNCCOc2ccccc2OC)c(C(C)(C)C)c1 (configuration not stated)
→ 6%, 12, 0.7, 3.0, -4, -8.4, -3
CC(=O)C1CCC2C3CCC4=CC(=O)CC[C@]4(C)[C@@]3(F)C(O)C[C@]12C (some centres not stated)
→ ?, -15, 2.6, -0.8, 4, 3.2, 4
O=S(=O)(NCc1csc(-c2cccs2)n1)c1cccc(C(F)(F)F)c1
→ -7%, -5, 5.1, 3.8, -24, 2.6, -14

# More structures
# Each structure is followed by: Vif TR-FRET, B2AR ag, RanGTP-Impb inh, HNF4A DNA FP, ALR inh, LANA-H2B inh, Calb FLC
C/C(=N\NC(=O)c1ccc(Cl)cc1)c1cccs1
→ 4%, 6, 0.9, -3.0, ., ., -5
C/C(CC(=O)NCCCN1CCOCC1)=N\NC(=O)COc1ccc(C)cc1
→ ., 2, -1.7, 0.3, 2, -1.3, -17
c1coc(CN2CNc3nc4ccccc4n3C2)c1
→ -4%, 6, 2.7, 4.9, -1, -1.9, -21
O=C(NCc1ccccc1)C1CCCN(C(=O)NCc2ccccc2)C1 (configuration not stated)
→ 2%, -6, 13, 1.6, 0, 0.6, 3
COc1ccc2c(CC(=O)NCC3CCC(C(=O)O)CC3)cc(=O)oc2c1 (configuration not stated)
→ -1%, 7, -0.9, 3.4, -2, -0.1, -2
Cc1cc(SCC(=O)NCCN2C(=O)CSC2=O)nc2c(C)cccc12
→ 7%, -1, -0.4, -2.1, 3, 4.5, 0
CCn1c(SC(C)C(=O)Nc2ccc(N3CCOCC3)cc2)nnc1C1CC1 (configuration not stated)
→ 3%, 10, ., -1.6, 47, -1.5, .
CCOCCn1ccc2c(OCC(=O)NCc3ccccc3)cccc2c1=O
→ 1%, 15, -2.0, -0.8, -14, 5.5, 6
Cn1c(CC(=O)NNC(=O)c2ccc(F)cc2F)nc2ccccc21
→ -5%, -1, ., 3.4, -2, -1.3, .
Cc1cc(NC(=O)CSc2nc(C)c(C)c(=O)[nH]2)no1
→ 3%, -1, -1.9, -2.1, -1, -1.5, -5
Cc1cc(NC(=O)C(C)Oc2ccc(Cl)cc2Cl)n(-c2ccccc2)n1 (configuration not stated)
→ ?, -6, 2.0, 1.3, -6, 3.9, 11
CCOCCn1c(SCc2ccc(F)cc2)nc2c1c(=O)[nH]c(=O)n2C
→ 0%, -5, 2.6, 1.6, ., -2.7, 8
Cc1ccc(C(=O)CCC(=O)N2CCN(C(=O)c3ccco3)CC2)cc1
→ 9%, -3, -2.4, -1.0, -11, 4.3, 3
Cc1nn2c(-c3cccc(NC(=O)c4ccco4)c3)nnc2c2ccccc12
→ -3%, 0, -2.8, -5.8, 8, -3.6, 7
Cc1nc2nc(SCC(=O)c3ccc([N+](=O)[O-])cc3)[nH]c2cc1Br
→ ?, 2, 2.8, 2.3, 44, 3.3, 11

# Screening results deposited in PubChem by several laboratories.

# Not a hit list, and some 6.3% of all compounds hit somewhere here.
